Screening data deposited in PubChem BioAssay by National Center for Advancing Translational Sciences (NCATS).
miR-21 reporter: raises the signal of a miR-21 reporter. HeLa miR-21 FLuc reporter, luciferase, 48 h. 340,000 tested, under 10 active. Potency, µM (titrated, usually from 38.3 µM), for the others: at the highest dose reporter change, positive = more light; active = well fitted rising curve with a large enough effect; inconclusive = small, poorly fitted or top-dose-only effect; inactive = no such curve, though single readings can be large or run the other way;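 note: % of control where 0% means no effect; miR-21 action dims this reporter so a rising signal means less miR-21 action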
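Compounds were titrated across several concentrations (up to approximately 40 uM) and incubated 48 hours with HeLa miR-21-FLuc reporter cells (miR-21 target sequence downstream of FLuc, endogenous miR-21). Readout was firefly luciferase luminescence after lytic detection reagent.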
An asterisk follows results filed as active; ? = inconclusive.

SMILES,miR-21 reporter
CCOc1ccc(C2CC(=O)N(c3cccc(F)c3)C3=C2C(=O)OC3)cc1 (stereo unspecified),-12%
COc1cccc(C2c3c(-c4ccccc4O)n[nH]c3C(=O)N2CCc2ccc(OC)c(OC)c2)c1 (stereo unspecified),19%
CCOc1ccc2nc(N(Cc3cccnc3)C(C)=O)sc2c1,-29%
Cc1cn2c(=O)cc(COc3ccc(NC(=O)c4ccc(C(C)(C)C)cc4)cc3)nc2s1,-17%
Cc1ccc(CNC(=O)c2ccc(N3CCCC3)c(NC(=O)Nc3ccc(C)cc3)c2)cc1,-8%
CCOc1ccc(-c2nc(C(N)=O)c3c(n2)n(-c2ccc4c(c2)OCO4)c(=O)n3CC)cc1,-2%
COc1ccccc1NC(=O)CN1C(=O)c2cccc3cccc1c23,12%
O=c1nc2c(-c3ccc(F)cc3Cl)n[nH]n2c2ccccc12,-18%
Cc1ccc(CNC(=O)c2sc3nc(C)cc(C)c3c2-n2cccc2)cc1,1%
CCN(CC)S(=O)(=O)c1ccc(NC(=O)CN(c2ccccc2)S(=O)(=O)N(C)C)cc1,-4%
CCSc1nc2n(n1)C(c1ccc(CC)cc1)C(C(=O)Nc1ccccc1OC)=C(C)N2 (stereo unspecified),-3%
Cc1cc(C(=O)NCc2ccccc2C)c2c(C)nn(-c3cccc(F)c3)c2n1,-2%
CCOc1ccccc1NC(=O)C(NS(=O)(=O)c1cccc2nsnc12)c1ccccc1 (stereo unspecified),1%
O=C(C1COc2ccccc2O1)N1CCN(c2nc3ccc(F)cc3s2)CC1 (stereo unspecified),-2%
Cc1ccc2c(c1)c1c(c(=O)n(-c3ccccc3)c(=O)n1Cc1ccccc1C)n2C,1%

Carrying on:
SMILES,miR-21 reporter
Cc1nc2nc(SCC(=O)Nc3cccc(Cl)c3)nn2c(C)c1Cc1ccccc1,8%
Cc1ccc(CNC(=O)c2ccccc2NC(=O)c2nsc3ccccc23)cc1,-21%
Cc1cc(Nc2cccc(C(F)(F)F)c2)nc2ccc(NC(=O)c3cccnc3)cc12,?
O=C(Nc1cccc(Cl)c1)c1cc(-c2ccc3c(c2)OCO3)on1,-56%
CC(=O)c1cccc(NCc2ccccc2-c2nnc(-c3ccccc3)o2)c1,-45%
Cc1ccc(CNS(=O)(=O)c2ccc3[nH]c4c(c3c2)CCCC4)cc1,-1%
CCc1ccc(C2=CC(c3cccc(C)c3)n3c(nc4ccccc43)N2)cc1 (stereo unspecified),17%
COc1cc(-c2nnc(SCC(=O)Oc3ccccc3)o2)cc(OC)c1OC,-1%
COc1ccc(C(CNC(=O)c2ccc(C)cc2)N2CCOCC2)cc1 (stereo unspecified),-5%
CCCCOC(=O)c1c(N)n(-c2ccc(OC)cc2OC)c2nc3ccccc3nc12,-8%
Cc1ccc(OCc2cc(=O)n3ccsc3n2)c(NC(=O)c2ccco2)c1,-1%
COc1ccc(N2CCN(C(=O)c3cc4c(-c5ccccc5F)nn(C)c4s3)CC2)cc1,3%
CCc1ccccc1Nc1cc(C(=O)NCc2ccc(C)cc2)c2ccccc2n1,21%
Cc1ccc(S(=O)(=O)C(CNC(=O)c2ccccc2F)c2cccs2)cc1 (stereo unspecified),-8%
O=C1CC(c2ccccc2)Cc2[nH]c(=O)c(C(=O)Nc3cccc(F)c3)cc21 (stereo unspecified),14%

(cont.)
SMILES,miR-21 reporter
Cc1ccc(NC(=O)C2CCCN(S(=O)(=O)c3ccc4c(c3)CCCC(=O)N4)C2)cc1N(C)C (stereo unspecified),22%
CCOC(=O)c1c(C)n(-c2ccccc2)c2ccc(OC(=O)c3ccccc3Cl)cc12,-8%
CCOC(=O)c1c(SCC(=O)Nc2cccc(C)c2C)nc(=O)[nH]c1C,11%
COc1ccc(Cl)cc1NC(=O)CN1C(=O)CSc2ccc(S(=O)(=O)N3CCCC3)cc21,-5%
COc1ccc(OC(=O)CSc2nnc(-c3ccc(F)cc3)o2)cc1,-2%
CCc1cccc(C)c1NC(=O)Cn1cc2c(n1)CCCCC2,0%
C=C(C)COc1ccc(-c2nc(N)ncc2-c2ccc(OC)cc2)c(O)c1,13%
Cc1ccc(Cl)cc1NC(=O)c1cccc(NC(=O)N2CCSc3ncccc32)c1,28%
CCc1ccccc1NC(=O)C1CCN(c2nc3ccccc3[nH]2)CC1,2%
CCc1nn(CC(=O)NCc2ccc(C)cc2)c(=O)c2cc3occc3n12,-1%
O=C(Nc1ccc2nc(SCC(=O)N3CCc4ccccc43)sc2c1)c1ccccc1F,-5%
Cc1nn2c(=O)cc(COC(=O)c3cccc(NC(=O)CCc4ccccc4)c3)nc2s1,-31%
Cc1cccn2c(=O)c(C(=O)NCCc3ccc(Cl)cc3)cnc12,-48%
CCOc1ccc(S(=O)(=O)NCc2cccn2Cc2cccc(C)c2)cc1,-4%
CCc1ccc(Nc2ncnc3c2cnn3-c2cc(Cl)ccc2C)cc1,-28%

Continued.
SMILES,miR-21 reporter
Cc1ccc(S(=O)(=O)N2CCN(Cc3ccc4c(c3)OCO4)CC2)cc1,-2%
COC(=O)c1ccc(NC(=O)CCc2c(C)nn(-c3ccc(N4CCCCC4)nn3)c2C)cc1,-37%
COc1cccc(NC(=O)CSCn2nnc3c(=O)[nH]c(Cc4ccc(F)cc4)nc32)c1,0%
COc1ccc2c(CNCCc3cccs3)c(C(=O)O)n(Cc3cccc(F)c3)c2c1,0%
CCC(=O)C1=C(c2ccc(C)cc2)N(C(=O)CC)n2c(nnc2C2CCCCC2)S1,4%
CCOC(=O)N1CCC(NC(=O)c2ccc3c(c2)N(Cc2ccc(Cl)cc2)C(=O)c2ccccc2S3(=O)=O)CC1,9%
COc1ccc(CCNC(=O)c2csc3c2CCCCC3)c(OC)c1,12%
CCOc1ccc(S(=O)(=O)NCCc2sc3nc(-c4ccc(F)cc4)nn3c2C)cc1,25%
Cc1ccc2oc(=O)c3cc(C(=O)Nc4ccc(C)c(F)c4)sc3c2c1,-1%
O=C(Nc1ccc(Cl)cc1)c1cc2nc(-c3ccc4c(c3)OCO4)cc(C(F)(F)F)n2n1,-9%
O=C(O)CCc1ccc(-c2ccccc2)n1-c1cccc(Br)c1,-6%
Cc1ccc(C(=O)c2cn(Cc3cccc(F)c3)c3nc(C)ccc3c2=O)cc1,-3%
Cc1ccc(-n2c(=O)c3c(C)c(C)sc3n(Cc3ccc(F)cc3Cl)c2=O)cc1C,-7%
CC(NC(=O)CCc1cn(Cc2ccccc2Cl)c2ccccc12)c1ccccc1 (stereo unspecified),18%
COc1ccccc1-c1noc(CCCC(=O)Nc2cc(C)ccc2C)n1,-6%

The results go on:
SMILES	miR-21 reporter
Cc1cccc(-c2noc(CN(C(=O)c3ccc(C)c(C)c3)C(C)C)n2)c1	?
Cc1cccc(NC(=O)Cn2c(=O)n(CCCCCC(=O)NCc3ccc4c(c3)OCO4)c(=O)c3sccc32)c1	-5%
CCSc1ncc(Cl)c(C(=O)Nc2ccc(S(=O)(=O)N(C)c3ccccc3)cc2)n1	19%
COc1ccc(COC(=O)c2[nH]c3c(c2C)C(=O)CC(c2ccc(OC)c(OC)c2)C3)cc1 (stereo unspecified)	15%
CCN1C(=O)C(Cc2nc3ccccc3c(=O)n2-c2ccc(OC)cc2)c2cc(C)ccc21 (stereo unspecified)	-2%
COc1ccc(C2C=C(c3cccc(OC)c3)Nc3c(C(=O)Nc4ccccc4)cnn32)cc1 (stereo unspecified)	-3%
CCOC(=O)c1ccc(NC(=O)c2c(NCc3sccc3C)sc3c2CCCCC3)cc1	-14%
COc1cccc(Cn2c(=O)n(CC3CCC(C(=O)N4CCCCC4)CC3)c(=O)c3sccc32)c1 (stereo unspecified)	29%
CN(C1CCCCC1)S(=O)(=O)c1ccc2c(c1)c(=O)c(C(=O)NCCc1ccc(Cl)cc1)cn2C	-5%
COc1ccc(N2CCN(C(=O)c3cc(NS(=O)(=O)c4ccc(F)cc4)ccn3)CC2)cc1	3%

(further entries)
SMILES	miR-21 reporter
COc1ccc(C(=O)CCC(=O)Nc2ccc(C)c(Cl)c2)cc1	-2%
CCCN(C(=O)C1CCN(S(=O)(=O)c2c(C)noc2/C=C/c2ccc(C)cc2)CC1)c1ccccc1F	-1%
CCC(=O)N1CCc2cc(S(=O)(=O)NC(C(=O)NCc3ccccc3Cl)C(C)C)ccc21 (stereo unspecified)	1%
Cc1cc(C)cc(-n2c(SCC(=O)Nc3cccc(F)c3)nc3c([nH]c4ccccc43)c2=O)c1	-4%
COc1ccc(CCNC(=O)CS(=O)(=O)Cc2nc(-c3cccc(Cl)c3)oc2C)cc1OC	-2%
CCOc1ccc(C2C(C(=O)Nc3ccccc3OC)=C(C)Nc3c(C(=O)Nc4cccc(C)c4)cnn32)cc1 (stereo unspecified)	13%
COc1ccc(-n2c(=O)c3c4c(sc3n3c(SCCC(C)C)nnc23)COC(C(C)C)C4)cc1 (stereo unspecified)	1%
CSc1oc(-c2ccc(F)cc2)nc1S(=O)(=O)c1ccc(Br)cc1	1%
O=C(c1nc(-c2ccc(Cl)cc2)n2c1CCCCC2)N1CCN(c2ccccc2F)CC1	14%
CCOC(=O)C1CCN(C(=O)c2cc3ccc4ccc(C)[nH]c4c3n2)CC1	-22%

Remaining list, next part
SMILES	miR-21 reporter
CCc1ccc(NC(=O)c2cc(S(=O)(=O)NC3CCCCCC3)ccc2F)cc1	25%
COc1cccc(CNC(=O)Cc2c(C)c3c(cc(C)c4c(C)c(C)oc43)oc2=O)c1	7%
COc1ccc(NC(=O)Nc2cccc(-c3cn4cccnc4n3)c2)cc1	-30%
CCn1c(C(=O)Nc2ccccc2C(=O)OC)cc2sc(Cl)cc21	0%
O=C(CNC(=O)c1ccccc1)OCc1cc(=O)n2ccsc2n1	-2%
CCOC(=O)c1ccc(NC(=O)COCc2cc(-c3ccc4c(c3)OCO4)on2)cc1	-7%
Cc1sc2ncn(CC(=O)N3CCN(c4ccc(F)cc4)CC3)c(=O)c2c1S(=O)(=O)N1CCN(c2ncccn2)CC1	10%
COc1cccc(-c2nn(C)c3sc(C(=O)N4CCN(c5cccc(C)c5)C(C)C4)cc23)c1 (stereo unspecified)	27%
Cc1ccccc1C(=O)Nc1nc2nc(-c3ccccc3)cc(=O)n2[nH]1	0%
O=C(CSc1nnc2ccc3ccccc3n12)Nc1ccccc1Cl	-41%

(cont.)
SMILES	miR-21 reporter
COc1ccc(CNC(=O)c2cc3sccc3n2C)cc1	-32%
CCOc1ccc(CCNC(=O)c2ccc(-n3c(C)cc4c3CCC(C)C4)cc2)cc1OCC (stereo unspecified)	28%
COc1cccc(N2CCN(C(=O)c3c(C)oc4ncnc(N5CCOCC5)c34)CC2)c1	0%
C=Cc1ccc(Cn2c(C(=O)O)c(CNCc3cc(OC)ccc3OC)c3ccc(C)cc32)cc1	0%
CN(Cc1ccccc1)C(=O)c1ccc2c(c1)N(Cc1ccccc1Cl)C(=O)c1ccccc1S2	20%
Cc1ccccc1-c1nc(CN2CCC(C(=O)NCCc3ccccc3)CC2)c(C)o1	11%
COc1ccc(OC)c(NC(=O)Cn2ccn(-c3ccc(OC)c(OC)c3)c(=O)c2=O)c1	-2%
O=C(C1CCN(S(=O)(=O)c2cccs2)CC1)N1CCN(c2cccc(Cl)c2)CC1	4%
Cc1ccc(C)c(-n2c(N)c(C#N)c3nc4ccccc4nc32)c1	-7%
COCCn1c(C)cc(O)c(C(c2ccccc2)N2CCN(c3ccccc3F)CC2)c1=O (stereo unspecified)	-7%

Additional structures:
SMILES	miR-21 reporter
Cn1c(=O)c2sccc2n2c(CCCC(=O)NCc3ccccc3)nnc12	1%
Cc1nc2c(-c3ccccc3)c(C)nn2c(C)c1CCC(=O)Nc1ccccc1F	19%
O=c1cc(-c2ccccc2)nc(SCc2nc(-c3ccc(Cl)cc3)no2)[nH]1	-4%
CCc1ccc2oc(C(=O)N(Cc3ccc(N(C)C)cc3)Cc3ccco3)c(C)c2c1	-5%
CCS(=O)(=O)NCCc1csc2nc(-c3ccc(OC)cc3)nn12	-14%
COc1ccc(C(=O)c2oc3ccccc3c2NC(=O)COc2ccccc2)cc1	-7%
CCOC(=O)c1cc2c(=O)n3ccccc3nc2n(Cc2ccco2)c1=NC(=O)c1ccc(C)c(C)c1	-2%
CCCCC(=O)Oc1ccc2oc(-c3ccc(OC)cc3)cc(=O)c2c1	-59%
COc1ccc(-n2nc(C(=O)Nc3cc(OC)c(OC)c(OC)c3)c(=O)n(C)c2=O)cc1	1%
CCOc1cc2[nH]c(=O)n(Cc3ccc(C(=O)NCCN(CC)CC)cc3)c(=O)c2cc1OCC	-3%

This is a subset; the hit share may differ from the screen's.
